# Compound activity from PubChem BioAssay.
# Env fusion inh = inhibitors of HIV-1 Env-driven cell-cell fusion, primary screen, HeLa-JRFL effector, CEM21 target cells, luciferase; inhibition, % at 12.3 µM; 360,000 compounds, 1.1% hits;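 active = mean replicate inhibition score of at least 50 and every replicate individually at or above 50; inconclusive = only one of the two criteria met; inactive = mean below 50 and not all replicates reaching 50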;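 note: 0% = plate neutral controls and 100% = maraviroc near 300 nM; one replicate is shown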
# Rce1 inhib = yeast Rce1p protease inhibitors, primary screen, biochemical, fluorescence, cell-free homogeneous. CAAX prenyl protease 2 (Saccharomyces cerevisiae (strain ATCC 204508 / S288c)), Q03530. 290,000 compounds, 0.27% hits. calls only. yeast membranes, quenched prenylated peptide cleavage fluorescence;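 active = fall in fluorescence gain of 50% or more versus controls, with final raw signal at or below 3038400; inconclusive = same 50% fall but final raw signal above 3038400; inactive = fall in fluorescence gain under 50%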;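 note: plate controls were neutral control wells for no effect and wells lacking membranes for full effect; tested at 10 µM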
# PABP FP inh = PABP poly(A) RNA binding inhibitors, primary screen, biochemical, fluorescence polarization, uHTS. inhibition, % at 35 µM. 290,000 compounds, 1% hits;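 active = 50% or more with normal probe brightness, or confirmed in later tests; inconclusive = above 50% with abnormal brightness, or retests that disagree; inactive = below 50% or failed in later tests; about a fifth of its hits are not listed in these tables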;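 note: calls also rest on retests at 20 µM and on dose response follow-up; controls were probe without protein and protein plus probe with vehicle; some compounds called inactive have numbers as strong as hits; many hits fall short of the cut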
# Target sequence (P11940 whole entry, looked up): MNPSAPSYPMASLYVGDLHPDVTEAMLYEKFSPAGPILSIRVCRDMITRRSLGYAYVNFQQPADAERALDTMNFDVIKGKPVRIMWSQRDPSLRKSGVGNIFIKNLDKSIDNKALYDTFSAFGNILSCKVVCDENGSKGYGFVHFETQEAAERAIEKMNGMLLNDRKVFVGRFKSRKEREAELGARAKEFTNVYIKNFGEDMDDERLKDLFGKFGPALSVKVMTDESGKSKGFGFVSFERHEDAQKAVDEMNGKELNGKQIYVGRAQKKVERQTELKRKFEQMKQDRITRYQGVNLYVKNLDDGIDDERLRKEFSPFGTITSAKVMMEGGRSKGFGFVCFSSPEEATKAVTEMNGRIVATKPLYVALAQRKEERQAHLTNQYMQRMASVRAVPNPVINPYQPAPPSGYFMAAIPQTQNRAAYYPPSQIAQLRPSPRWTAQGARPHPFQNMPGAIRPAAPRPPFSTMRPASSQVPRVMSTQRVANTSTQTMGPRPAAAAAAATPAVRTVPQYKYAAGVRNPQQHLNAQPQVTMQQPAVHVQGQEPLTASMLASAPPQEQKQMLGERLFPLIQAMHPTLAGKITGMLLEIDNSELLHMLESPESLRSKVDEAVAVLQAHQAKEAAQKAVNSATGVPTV
# UUG fidelity = modulators of yeast start codon fidelity, primary screen, whole organism, S. cerevisiae, single point, plate reader; S. cerevisiae UUG-firefly luciferase reporter, luminescence/redox ratio; activity score, % at 18.7 µM; 350,000 compounds, 0.13% hits; AID 602363, 2012;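 active = replicate mean at a twofold rise or more, about +100% in these data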;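 note: firefly luciferase made from a UUG start codon reports start codon fidelity; reporter light over untreated wells divided by growth signal over untreated wells; some hits fall short of that in this replicate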
# MT1-MMP act inh = blockers of MT1-MMP proenzyme processing, primary screen, HT1080 RFP-PRO-GFP cells, GFP/RFP fluorescence; 360,000 compounds, 0.061% hits; Matrix metalloproteinase-14 (Homo sapiens), P50281; GFP/RFP ratio fluorescence, overnight; percent of plate control window, DMSO zero; GFP/RFP ratio change, % at 20 µM;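 active = GFP/RFP ratio change of at least 30% with cell ATP level not reduced by more than half and red fluorescence within 50% of control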; note: strong numbers were not always called active
#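 Assay system: HT1080 RFP-PRO-GFP cells | Dosing: 20 µM single dose, 1% DMSO | Incubation: Cells overnight before dosing, compound overnight, 37 °C, 5% CO2 | Evaluation: GFP/RFP fluorescence ratio | Control set: DMSO-only wells and HT1080 RFP-L50D-GFP cell wells as references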
# CSC inhib = cancer stem cell viability inhibitors, primary screen, luminescence; inhibition, % at 7.5 µM; 300,000 compounds, 1.1% hits; cancer stem cell-like cells viability; AID 2717, 2010;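 active = mean at 75% or more and at least half the replicates too; inconclusive = mean and replicates disagree; tested in HMLE shEcad cells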;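 note: 0% = median of negative and 100% = median of positive control wells; the first replicate is given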
# eIF4H FP inh = human eIF4H binding inhibitors, primary screen, translation initiation inhibitor project, biochemical, uHTS, fluorescence polarization | Eukaryotic translation initiation factor 4H (Homo sapiens), Q15056 | eIF4H fluorescence polarization binding assay | inhibition, % at 35 µM | 290,000 compounds, 0.94% hits;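 active = 50% or more with normal probe brightness, or confirmed in later tests; inconclusive = above 50% with abnormal brightness, or retests that disagree; inactive = below 50% or failed in later tests; about a fifth of its hits are not listed in these tables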;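 note: calls also rest on retests at 20 µM and on dose response follow-up; 0% = protein and probe with vehicle and 100% = probe without protein; strong numbers were not always called active; many hits fall short of the cut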
# MT1-MMP act inh RFP = recorded beside MT1-MMP act inh, whose call it bears; RFP signal change, %; measured here: RFP expression control read;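 0 = vehicle wells; hits needed this value within 50% of zero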
# * marks the source's active call; other numbers are inactive results; i = inactive; ? = inconclusive; . = no result given; & = joins results of further samples.
SMILES,Env fusion inh,Rce1 inhib,PABP FP inh,UUG fidelity,MT1-MMP act inh,MT1-MMP act inh RFP,CSC inhib,eIF4H FP inh
CN1C(C(=O)NCc2ccco2)CC2Cn3c(nc4ccccc43)C21 (stereo unspecified),-10,i,.,-20,-1,2,-10,.
COc1ccc(S(=O)(=O)Nc2ccc(S(=O)(=O)N(C)C)cc2)cc1[N+](=O)[O-],-1,i,-3,.,0,-4,-8,-3
Cc1ccc(C(=O)O)cc1NC(=O)CSc1nnc(-c2ccccc2F)n1C1CCCCC1,.,.,.,9,-5,0,-20,.
CC(=O)c1ccc(S(=O)(=O)N(C)CC(=O)N2CCCCCC2)cc1,31,i,-4,0,-1,2,-13,-12
Cc1ccc(Nc2nc(N3CCOCC3)nc(N3CCOCC3)n2)cc1Cl,-2,i,.,-12,-10,-10,42,.
CN1C(=O)c2ccc(C(=O)Nc3nccs3)cc2C1=O,3,i,-1,.,2,3,-13,1
COc1ccc(S(=O)(=O)Nc2ccc(Cl)cn2)c(C)c1C,-14,i,10,3,-1,-1,-17,7
Cc1ccc(Cc2c(C3CCCCC3)nc3ccc(Br)cn23)cc1,-23,.,.,-3,2,-2,.,.
COc1ccccc1NC(=S)NCc1ccc(Cl)cc1,-21,i,-4,-21,0,-5,-3,4
CC(C)(C)c1ccc(-c2csc(NNC3=NCCCCC3)n2)cc1,-21,i,19,.,0,-1,15,-8
COc1ccccc1C(=O)COC(=O)Cn1nc(C)c([N+](=O)[O-])c1C,4,i,.,.,0,1,.,.
FC(F)(F)c1nc(-c2cccs2)ncc1-c1nnnn1-c1ccc(Cl)cc1,70*,i,2,.,-3,-16,26,2
COC(=O)C(C)(C)ONC(=O)Nc1ccc(C)cc1,-45,i,17,-4,3,8,-15,0
Cc1cc(C(=O)C(C)OC(=O)c2ccc(NC(=O)CC#N)cc2)c(C)n1-c1ccccc1 (stereo unspecified),-1,i,.,-18,-3,-8,13,.
Fc1ccc(-c2nnc(-n3nnc4ccccc43)c3ccccc23)cc1,15,i,.,3,-6,-1,-18,.
O=C1CC(c2ccccc2)CC(O)=C1C=NCCN1CCN(C(=S)Nc2cccc(Cl)c2)CC1 (stereo unspecified),.,i,-5,-16,0,3,3,-4
Cc1onc(-c2ccccc2Cl)c1C(=O)Nc1nnc(-c2cccc([N+](=O)[O-])c2)s1,.,i,19,-17,3,-22,17,9
CC(=O)N/C(=C\c1ccccc1)C(=O)OC/C=C/c1ccccc1,-3,i,-3,2,2,1,4,-6
COc1ccc(NC(=O)C2CC(c3ccc(Cl)cc3)=NO2)cc1 (stereo unspecified),2,.,9,-9,0,-1,-17,-14
O=C(CCn1c(=S)oc2ccccc21)Nc1ccccc1F,7,i,-13,-27,-1,4,0,4
Cc1noc(C)c1S(=O)(=O)N1CCN(c2ccc(Cl)cc2)CC1,1,i,-9,-8,1,-3,4,-5
COc1ccc(/C(C)=N\NC(=O)c2ccc(-c3ccccc3)cc2)c(F)c1,-7,i,2,-16,-8,1,1,-7
COc1ccc(-n2nnnc2SCC(=O)Nc2cc(OC)c([N+](=O)[O-])cc2C)cc1,16,i,-7,.,1,-8,1,1
CCC(C)(C)NC(=O)CN(Cc1ccccc1)C(=O)CCC(=O)Nc1nccs1,-7,i,-2,-9,-4,-2,-2,-1
CCN(C[C@H]1N[C@@](C)(C(=O)OC)[C@H]2C(=O)N(Cc3ccccc3)C(=O)[C@@H]12)S(=O)(=O)c1ccccc1,22,.,.,-6,2,3,-14,.
CCOC(=O)Cn1nnnc1C(CC)N(Cc1cccs1)Cc1cc2cc(C)ccc2[nH]c1=O (stereo unspecified),.,i,-2,-5,-6,-7,.,-3
Cc1cccc(C)c1OCC(=O)N1CC2(C)CC1CC(C)(C)C2 (stereo unspecified),12,i,-2,-6,-2,-3,.,-4
COc1ccc(OC)c(N2CC(O)=C(c3nc4ccccc4s3)C2=N)c1,-86,i,-4,10,2,-2,14,1
Cc1[nH]n(-c2ccccc2)c(=O)c1N=Nc1ccc(F)cc1,10,i,12,-34,2,2,.,-1
CC1CCN=C(N)S1 (stereo unspecified),-10,i,.,-15,2,1,0,.
Cc1ccc(C)c(S(=O)(=O)c2c[nH]c(=S)[nH]c2=O)c1,1,i,.,2,0,4,14,.
O=C(CNS(=O)(=O)c1c(F)cc(F)cc1Br)OCC(=O)N1CCCC1=O,-8,i,.,-18,0,-1,13,.
CC(C)CC1(C(=O)NCCc2c[nH]c3ccccc23)C=CCN1C(=O)c1ccccc1 (stereo unspecified),-13,i,-5,21,-2,-1,3,-7
Cc1cccc(C)c1NC(=O)CCCSc1nnc(-c2ccco2)n1-c1ccccc1,.,i,3,-6,-5,-1,-10,3
CC(C(=O)Nc1ccccc1Br)N1c2cccc3cccc(c23)S1(=O)=O (stereo unspecified),-26,i,45,-17,3,0,-1,-8
CC1CCCCN1Cc1c(O)ccc2c(=O)c(-c3ccccc3)coc12 (stereo unspecified),-1,i,-6,-8,-8,-3,-2,0
C/C(N)=C(/C#N)C(=O)COC(=O)CCSc1ccccc1,-5&-82,i,-12,2,0&6,6&6,-6,-4
CC(=O)OCCCN(C)CC/C=C1/c2ccccc2CSc2ccccc21,15,.,.,.,-3,-1,17,.
CCc1cccc(C)c1NC(=O)CN(C)Cc1ccccc1F,-33,i,6,-15,-3,-4,-1,0
Nc1nnc(SCC(=O)NNC(=O)c2ccc([N+](=O)[O-])cc2)s1,6,.,.,-15,5,3,-7,.
O=C(NC1CCCCC1)NC1CCN(CC(=O)N2CCOCC2)CC1,-88,.,4,-18,6,7,-11,-2
NC(=O)c1ccsc1NC(=O)CN1C(=O)C2CC=CCC2C1=O (stereo unspecified),-84,i,9,-15,-3,3,-17,14
O=C(CCCc1ccccc1)Nc1ccnn1C1CCN(Cc2ccccn2)CC1,3,i,2,-16,-2,4,4,8
CCC(=O)N(CCO)Cc1cc2ccc(C)c(C)c2[nH]c1=O,.,i,-1,-15,3,2,-15,12
N#Cc1cnc(SCC(=O)Nc2ccccc2C(F)(F)F)nc1N,.,i,0,.,1,4,-1,8
O=C(CCc1nnc(CCc2ccccc2)o1)N1CCCC1c1nccs1 (stereo unspecified),-1,i,-7,.,2,4,6,3
CCC(C)NC(=O)CSc1nc2ccsc2c(=O)n1-c1ccc(OC)cc1 (stereo unspecified),-79,i,-14,.,2,2,-11,-5
COC(=O)CCCCC(=O)OC,.,.,.,-2,1,9,5,.
O=C(NCc1ccc(OC(F)(F)F)cc1)c1cc(-c2ccccc2)nn1CC1CC(c2cccnc2)=NO1 (stereo unspecified),22,i,.,-23,0,-2,15,.
COc1ccc(CNC(C)C(=O)Nc2ccc3ccccc3c2)cc1OC (stereo unspecified),-2,i,-9,.,1,2,-21,-4

# Entries of single compounds, quoted from the list. Order of values: Env fusion inh, Rce1 inhib, PABP FP inh, UUG fidelity, MT1-MMP act inh, MT1-MMP act inh RFP, CSC inhib, eIF4H FP inh
# COc1ccc(CNC(C)C(=O)Nc2ccc3ccccc3c2)cc1OC (stereo unspecified) reads -2, i, -9, ., 1, 2, -21, -4
# O=C(CCCc1ccccc1)Nc1ccnn1C1CCN(Cc2ccccn2)CC1 reads 3, i, 2, -16, -2, 4, 4, 8

# The results go on:
SMILES,Env fusion inh,Rce1 inhib,PABP FP inh,UUG fidelity,MT1-MMP act inh,MT1-MMP act inh RFP,CSC inhib,eIF4H FP inh
O=C(COC(=O)c1cc(-c2ccc(F)cc2)nc2ccccc12)NCC1CCCO1 (stereo unspecified),-12,i,-3,.,7,1,-3,3
Cc1ccc(C(=O)N[C@H](C(=O)N2CCN(c3ccccc3F)CC2)C(C)C)cc1,-1,i,-6,11,-1,-12,12,2
Cc1nnc(SCc2cc([N+](=O)[O-])cc3c2OCOC3)[nH]c1=O,11,i,8,-13,-2,-2,-11,-1
CSc1nsc(SCC(=O)Nc2cccc(C(C)=O)c2)n1,-11,i,-10,-17,2,8,1,-8
N#C/C(=C/c1ccc(-c2cc([N+](=O)[O-])ccc2Cl)o1)C(N)=O,-21,i,19,.,-8,-3,-7,48
CCOC(=O)c1cc(NC(=O)N2CCOCC2)c(C)nc1C,.,i,-10,-2,3,1,-6,2
c1coc(CNc2nc3nonc3nc2NCc2ccco2)c1,30,.,30,.,-6,-7,.,20
CC(C)n1cc(/C=N\NC(=O)c2cc3c(ccc4ccccc43)o2)c2ccccc21,.,.,0,-7,0,4,.,15
Cc1ccc(-c2nnc(SCC#N)n2N)cc1,.,i,10,-15,3,4,.,-10
Cc1ccc(C(=O)CC(Nc2ccc(F)cc2)c2ccccc2)cc1 (stereo unspecified),4,i,-4,16,1,-2,-1,4
Cc1ccc(NC(=O)/C(=C\c2cccnc2)NC(=O)c2ccccc2)cc1,-9,i,7,-17,4,1,-5,9
CC1NC(C)c2c(ccc3ccccc23)O1 (stereo unspecified),33,.,.,-7,8,5,.,.
COCCCNC(=O)CCC(=O)Nc1ccc2nc(N3CCOCC3)cc(C)c2c1,-9,i,12,-19,5,5,-19,0
O=C(c1ccc(S(=O)(=O)N2CCC(c3nc4ccccc4s3)CC2)cc1)N1CCOCC1,?,i,-5,.,4,4,-4,-6
COc1cccc(NC(=O)CSc2nc3ccccc3c(=O)n2CCCC(=O)N2CCCC2)c1,20,i,-8,10,-1,1,-1,-5
Cc1ccccc1-c1cccc([C@@H]2C[C@H]3[C@H](CON3C)CN2C)c1,-7,.,.,-7,4,1,.,.
COCCn1c(SCC(=O)N(C)C2CCS(=O)(=O)C2)nc2ccccc2c1=O (stereo unspecified),23,i,-5,-6,2,8,-2,-6
COc1ccc(-c2nn(-c3ccccc3)cc2/C=C(\C#N)C(N)=O)cc1[N+](=O)[O-],0,i,-11,-2,5,2,-6,32
CN1CCOc2cc(S(=O)(=O)Nc3ccc(F)cc3)ccc21,.,i,-4,-14,4,-10,-1,-5
O=S(=O)(NCCS(=O)(=O)N1CCN(c2ccccc2)CC1)c1ccccc1,0,i,3,-7,9,-3,-5,-1
O=C(Cc1cccs1)NNC(=S)NC(=O)c1ccc(F)c(F)c1,-47,i,10,.,5,9,17,3
CCc1ccc(N/C(N)=N/c2nc(CSc3ncccn3)cc(=O)[nH]2)cc1,13,i,-1,.,-1,-16,-10,-13
COc1ccc2c(C)cc(SCC(=O)NC3CCCC3)nc2c1,.,.,.,-12,-2,-4,-3,.
COc1ccc(CC(NC(C)=O)C(=O)N2CCN(C(=O)Nc3cccc(Cl)c3)CC2)cc1OC (stereo unspecified),.,i,-14,-17,-3,0,-15,2
Cc1ccc(NC(=O)c2cc([N+](=O)[O-])ccc2N2CCOCC2)cc1S(=O)(=O)N(C)C,28,i,-3,-2,-2,-2,-11,-13
CC(=O)C1=CCC(c2ccccc2)N(S(=O)(=O)c2ccccc2)C1 (stereo unspecified),-6,.,.,-7&-2,-3&4,0&3,.,.
CCc1noc(C)c1C(=O)N1CCN(S(=O)(=O)c2ccc(Br)cc2Cl)CC1,-6,i,.,.,1,-5,2,.
Cc1cc(NC(=O)CCN2C(=O)C3C4CCC(C4)C3C2=O)c(C)cc1Br (stereo unspecified),31,i,-1,-14,-1,-5,-5,9
Cc1ccc(CN2CCN(c3ncccn3)CC2)c(C)c1,-7,i,28,-14,0,-5,-11,17

# A portion of the library, so the mix of outcomes need not match the whole.
